Menin MLL FP FL: qHTS Assay for Inhibitors Targeting the Menin-MLL Interaction in MLL Related Leukemias: Competition With Fluorescein Labeled MLL-derived Peptide | Fluorescence polarization, fluorescein-MLL peptide displacement from menin | FP activity change, % at 61.4 µM | 290,000 tested, under 10 active; inconclusive = falling polarisation curve, or a change in total fluorescence; inactive = total fluorescence flat and polarisation flat or rising; no compound was filed as active; the % refers to the polarisation; negative = inhibition;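 further: % of control where 0% means no effect; inhibitors lower the polarisation; unlabelled MLL peptide was the positive control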
TRPML1 ag: qHTS for Agonists of the Human Mucolipin Transient Receptor Potential 1 (TRPML1). Mucolipin-1 (Homo sapiens), Q9GZU1. TRPML1-expressing cells, Ca2+ dye fluorescence, FDSS; host cell line not named in the record; reference of the full effect not given here. activation, % (test concentration not listed). 410,000 compounds, 0.12% hits; in the data active = activation above about 50%; inconclusive = about 30% to 50%; inactive = below about 30%; further: 0% is about no effect; the text of the record puts the active cut at 80%
Target sequence (Q9GZU1 whole entry, looked up): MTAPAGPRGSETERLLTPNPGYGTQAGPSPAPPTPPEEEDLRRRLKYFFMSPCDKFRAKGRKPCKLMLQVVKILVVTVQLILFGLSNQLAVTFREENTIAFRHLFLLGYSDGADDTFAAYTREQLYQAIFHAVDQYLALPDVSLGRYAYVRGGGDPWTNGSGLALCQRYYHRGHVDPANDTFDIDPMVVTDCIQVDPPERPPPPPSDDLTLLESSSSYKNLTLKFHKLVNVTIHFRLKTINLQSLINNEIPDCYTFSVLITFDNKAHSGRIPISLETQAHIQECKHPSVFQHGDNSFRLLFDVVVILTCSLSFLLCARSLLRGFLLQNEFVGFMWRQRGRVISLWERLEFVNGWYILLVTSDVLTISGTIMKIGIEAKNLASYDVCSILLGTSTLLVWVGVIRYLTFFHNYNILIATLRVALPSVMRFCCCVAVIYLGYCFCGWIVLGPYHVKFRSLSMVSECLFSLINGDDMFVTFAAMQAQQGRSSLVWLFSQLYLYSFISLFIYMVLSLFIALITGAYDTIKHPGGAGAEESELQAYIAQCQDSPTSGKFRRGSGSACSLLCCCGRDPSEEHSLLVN
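Tet-induced TRPML1-DL cells, 1,500 per well, cultured overnight, were loaded with a no-wash Ca2+ dye for 45–90 min. Calcium fluorescence was recorded on the FDSS for 110 s after compound addition, before the EC80 agonist (4 uM 54-4) was added.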
TRPV1 potentiator: HTS Assay for Compounds that Act as Potentiators of the Vanilloid Receptor 1 | TRPV1-expressing cells, Fluo-8 calcium influx, capsaicin EC20 potentiation; host cell line not named in the record; control for the full effect not named in the record | Transient receptor potential cation channel subfamily V member 1 (Homo sapiens), Q8NER1 | potentiation, % at 8.33 µM | 320,000 compounds, 0.02% hits; active means potentiation above 80%; inconclusive means 30% to 80%; inactive means below 30%; further: 0% is about no effect
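Fluo-8 calcium influx in TRPV1-expressing cells, kinetic read (ex 480/em 520 nm). Compound added and read 3 min for agonist activity, followed by capsaicin at EC20 final and 2 min further read for enhancement.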
PINK1 expr mod: A Quantitative High throughput Screen to Identify Chemical Modulators of PINK1 Expression; PINK1 immunofluorescence, high-content cytometry, 24 h; Potency, µM (highest dose often 76.6 µM), inactives show at the highest dose activation (PINK1 increase), usual class: activators; 410,000 compounds, 0.2% hits; AID 624263, 2012; active = well fitted activation curve with a large enough effect; inconclusive = small, poorly fitted or top-dose-only effect; inactive = flat fitted curve, though single readings scatter; cell line not stated here;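 further: potency means the concentration at half of the fitted maximal effect; % of control where 0% means no effect; nearly all actives have a fitted effect of over 65% in size; a mitochondrial uncoupler was the plate control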
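Stable cell line, 250 cells/well, 12 h attachment; compounds pinned at 5 concentrations, 24 h; CCCP control. Fixed with nuclear dye, primary antibodies 12 h at 10 degrees C, secondary plus cell stain; laser-scanning cytometer read.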
Sfp PPTase inh: qHTS Assay for Inhibitors of Bacillus subtilis Sfp phosphopantetheinyl transferase (PPTase); Biochemical Sfp PPTase activity, qHTS; Potency, µM, for inactives: max response, negative = inhibition, most hits filed as inhibitors; 310,000 compounds, 3.5% hits; AID 1490, 2009; active means well fitted inhibition curve with a large enough effect; inconclusive means small, poorly fitted or top-dose-only effect, or another doubt; inactive means no such curve, though single readings can be large or run the other way;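 further: the enzyme is Sfp with the accession as filed and its product quenches rhodamine fluorescence; potency means the concentration at half of the fitted maximal effect; 0% = enzyme reaction without inhibitor and -100% = no enzyme wells; top concentration of the series not given in the record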
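Compounds were incubated with enzyme (final 15 nM) for 15 min at room temperature before substrate addition started the reaction. Fluorescence at 525 nm excitation, 598 nm emission was recorded immediately and after 30 minutes.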
ClpP mod: qHTS Assay for Activators of ClpP. AID 651965, 2013. Potency, µM (top dose mostly 57.5 µM), for inactives: at the top dose activity change, negative = active. purified B. subtilis ClpP, FRET peptide cleavage, 20 min. 340,000 compounds, 1.9% hits; active = well fitted falling curve with a large enough effect; inconclusive = small, poorly fitted or top-dose-only effect; inactive = no such curve, though single readings can be large or run the other way; further: potency means the concentration at half of the fitted maximal effect; the source files actives as falling curves though it sought activators and does not explain the sign; nearly all actives have a fitted effect of over 65% in size; many hits overshoot -100%
Target sequence (P80244 whole entry, looked up): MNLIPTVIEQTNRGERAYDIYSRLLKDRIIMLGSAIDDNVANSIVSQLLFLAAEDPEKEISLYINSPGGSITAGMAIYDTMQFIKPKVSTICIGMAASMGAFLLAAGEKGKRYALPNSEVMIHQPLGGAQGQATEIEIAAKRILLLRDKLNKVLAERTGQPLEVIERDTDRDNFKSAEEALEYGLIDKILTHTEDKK
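FRET quenching reversal measured ClpP activation: 10 microg/mL B. subtilis ClpP at pH 8 with the FRET-FV decapeptide, read at 430 nm after 320 nm excitation. The 20-min minus 0-min signal was scaled between DMSO/no-enzyme wells and ADEP (5.8 microM final).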
TRPML1 inh: qHTS for Inhibitors of the Human Mucolipin Transient Receptor Potential 1 (TRPML1) | Mucolipin-1 (Homo sapiens), Q9GZU1 | TRPML1-inducible cells, Ca2+ dye fluorescence, FDSS; stronger effect = lower value; inhibition of EC80 agonist-evoked calcium signal | activity change, negative = inhibition, % (test concentration not listed) | 390,000 compounds, 0.02% hits | AID 624415, 2012; in the data active means activity change below about -50%; inconclusive means about -30% to -50%; inactive means above about -30%;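 further: stimulus is agonist 54-4 at its EC80 concentration; on the % scale 0 is the no-effect control and ±100 the full control effect; compound concentration not given in the record; the text of the record puts the active cut at -80%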
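TRPML1-DL cells, Tet-induced overnight (~16 h, 37 °C) at 1,500 cells/well, were loaded with Ca8 no-wash dye plus quencher for 45-90 min at room temperature. Compounds were pinned during FDSS kinetic reading; agonist 54-4 at EC80 (4 uM final) then added.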
Numbers without * were called inactive; ? = inconclusive; . = not tested or not shown; & = joins results of further samples; [ ] = another dose, or the depositor's remark.

Preview:
Structure	PINK1 expr mod	Menin MLL FP FL	TRPML1 inh	ClpP mod	Sfp PPTase inh	TRPML1 ag	TRPV1 potentiator
COc1cccc(CNC(=O)c2ccccc2C(=O)NC(C)(C)C(=O)NCc2cccc(OC)c2)c1	0.3%	.	32	-2.2%	-2%	-1.2	2
Cc1ccccc1-c1nnc(SCC(=O)N(C)C2CCCCC2)o1	-0.4%	.	6	-0.5%	.	-0.2	.

This part in full, repeating the preview:
Structure	PINK1 expr mod	Menin MLL FP FL	TRPML1 inh	ClpP mod	Sfp PPTase inh	TRPML1 ag	TRPV1 potentiator
COc1cccc(CNC(=O)c2ccccc2C(=O)NC(C)(C)C(=O)NCc2cccc(OC)c2)c1	0.3%	.	32	-2.2%	-2%	-1.2	2
Cc1ccccc1-c1nnc(SCC(=O)N(C)C2CCCCC2)o1	-0.4%	.	6	-0.5%	.	-0.2	.
CN(C)c1ccc(NC(=O)c2ccncc2)c2ccccc12	-1.4%	0.6	36	-0.6%	6%	1.3	-13
Cc1cccc(Oc2ccccc2N)c1	0.8%[38.3 µM]	-2.6	31	-2.5%	-13%	1.9	5
CCOC(=O)N1CCN(C(=O)c2cccc(S(=O)(=O)Nc3ccccc3Cl)c2)CC1	4.6%	.	-4	-2.5%	.	1.5	2
CC(NC(=O)c1c(O)c2ccccc2[nH]c1=O)c1ccccc1 (configuration not stated)	1.9%	-0.7	10	-27%	7%	0.5	13
OC(c1ccc(F)c(F)c1)c1ncc(-c2ccccc2F)[nH]1 (configuration not stated)	1.2%	.	.	-1.7%	.	-0.9	.
Cc1nnc(SCc2cccc3ccccc23)n(N)c1=O	3.9%	-3.4	18	-0.8%	2%	1.0	1
COc1cc(C(=O)Nc2ccc3nc(N4CCOCC4)sc3c2)cc(OC)c1OC	5.9%	.	4	-2.5%	.	2.3	1
COc1ccc(-c2csc(N(C)C(=O)c3cccs3)n2)cc1	15%	0.4	53	.	5%	1.0	-6

Next records follow.
Structure	PINK1 expr mod	Menin MLL FP FL	TRPML1 inh	ClpP mod	Sfp PPTase inh	TRPML1 ag	TRPV1 potentiator
O=S1(=O)c2ccccc2N(Cc2ccc(Cl)cc2)c2ccccc21	4.2%	.	74	?	.	3.1	.
CCOc1ccc(NCc2cccn2-c2nnc(N3CCC(C(=O)NCCOC)CC3)s2)cc1	-0.1%	.	45	1.0%	.	0.3	.
Cc1csc(=O)n1CCC(=O)OC(C)C(=O)Nc1ccc(N2CCOCC2)cc1 (configuration not stated)	1.6%	.	12	-2.2%	.	2.3	?
CN(C)C(=O)COC(=O)c1ccccc1OCC(=O)Nc1ccc(SC(F)F)cc1	1.6%	0.1	5	5.6%	-5%	-0.6	-14
c1cc2c(cc1-c1cnc3n1CCC3)OCCO2	.	2.5	-3	?	15%	0.4	-29
O=C(COc1ccc(Cl)cc1)Nc1ccccc1N1CCOCC1	.	3.6	.	.	7%	.	21
CCS(=O)(=O)N1CCN(c2ccccn2)CC1	1.0%	3.1	?	?	-17%	0.0	3
COc1ccc(N2C(=O)C3CCCN3C2c2ccccc2F)cc1 (configuration not stated)	-0.3%	1.2	-3	-1.4%	16%	0.6	0
Clc1nc(-c2ccccc2)ncc1Oc1ccccc1	7.1%	.	-7	0.3%	.	0.6	.
Cn1c(CNC(=O)c2ccco2)nnc1SCC(=O)Nc1cccc(F)c1	0.0%	-4.8	-22	.	9%	-0.1	1

Other compounds follow.
Structure	PINK1 expr mod	Menin MLL FP FL	TRPML1 inh	ClpP mod	Sfp PPTase inh	TRPML1 ag	TRPV1 potentiator
Cc1cccnc1NC(=O)Nc1cccc(C(F)(F)F)c1	18%	4.3	21	-0.6%	14%	-0.3	-12
Cc1nnc(SCC(=O)Nc2cccc(C(F)(F)F)c2)n1Cc1ccco1	-1.0%	-0.6	25	-1.0%	40µM*	4.8	2
COc1ccc(C=Nc2cccc3c(=O)[nH][nH]c(=O)c23)c2ccccc12	18%[38.3 µM]	5.4	12	7.8%	-8%	2.5	5
CCOC(=O)Cc1c(Sc2ccccc2)c2cc(C)ccc2n1C	13%	3.8	12	-2.2%	2%	1.7	-8
CC(=O)NC12CC3CC(CC(CC(=O)O)(C3)C1)C2	-1.8%	-1.5	-28	1.4%	-3%	-0.7	5
CCn1nc(C)cc1-c1nnc(Sc2ncc([N+](=O)[O-])s2)n1C	-1.0%	?	20	1.0%	45µM*	0.0	-20
C[C@@]12C(=O)NCC(=O)N1[C@@H]1c3cc(Br)ccc3OC[C@@H]1[C@@H]2c1ccccc1	1.4%	.	25	0.2%	.	-0.6	.
COc1cc(OC)c(C(=O)OCC(=O)Nc2nnc(-c3ccccc3)o2)cc1OC	-1.6%	.	-1	-8.3%	.	0.3	1
Cc1nn(-c2ccc(F)cc2)c(-n2cccc2)c1C(=O)N1CCCCC1C (configuration not stated)	-1.5%	.	-3	2.5%	.	1.4	.
CCn1cc(C(=O)N2CCN(c3ccc(F)cc3)CC2)c2cc(OC)c(OC)cc2c1=O	0.3%	-2.5	36	.	7%	0.7	-4

(continued)
Structure	PINK1 expr mod	Menin MLL FP FL	TRPML1 inh	ClpP mod	Sfp PPTase inh	TRPML1 ag	TRPV1 potentiator
COc1ccc(NC(=O)c2ccc(COc3ccc(C)cc3)o2)cc1	3.2%	-1.3	-4	12%	2%	1.9	-6
O=C1C2C3c4ccccc4C(c4ccccc43)C2C(=O)N1Cc1cccnc1 (configuration not stated)	2.1%	0.5	2	-1.5%	25%	-0.4	2
Cc1ccc2oc3c(c(=O)c2c1)C(c1ccc(F)cc1)N(CCCN1CCOCC1)C3=O (configuration not stated)	.	0.9	.	.	?	.	?
CCCCN(C(=O)c1ccccc1Cl)C(CC(C)C)c1nc2ccccc2[nH]1 (configuration not stated)	2.3%	.	.	-0.8%	.	-0.1	.
COC(=O)c1cc(OC)c(OC)cc1NC(=O)CN1CCCCC1	8.5%[38.3 µM]	0.2	13	-16%	8%	-0.3	-5
CC1CCCC(C)N1S(=O)(=O)c1ccc(Cl)cc1 (configuration not stated)	2.3%	-2.5	37	.	14%	0.5	7
Cn1c(=O)c2c(ncn2CC(=O)N/N=C/C=C/c2ccccc2)n(C)c1=O	-0.1%	4.2	-12	0.9%	5%	0.6	4
O=S(=O)(Nc1ccc(F)c(C(F)(F)F)c1)c1ccc(N2CCCCS2(=O)=O)cc1	-1.7%	.	-15	-1.8%	.	-0.1	.
COc1ccc(Cl)cc1NC(=O)CSc1nncn1-c1cccnc1	-1.1%	1.2	-11	-1.8%	11%	0.0	-2
COc1ccc(S(=O)Cc2ccc(C(=O)N3CCN(c4cccc(C)c4C)CC3)o2)cc1 (configuration not stated)	0.9%&7.0%	.	-4&11	0.4%&0.3%	-8%	0.0&-0.7	2

Following part.
Structure	PINK1 expr mod	Menin MLL FP FL	TRPML1 inh	ClpP mod	Sfp PPTase inh	TRPML1 ag	TRPV1 potentiator
N#CCC(=O)NCCCc1ccccc1	-1.9%	1.2	-9	-0.9%	14%	0.3	-1
Cc1ccc2nc(SCC(=O)NCC3CCCO3)c(C#N)cc2c1 (configuration not stated)	0.7%	3.1	4	-17%	23%	-0.7	-21
CCOc1ccc(C2CC(=O)c3c([nH]c(C(=O)OC4CCC(C)CC4)c3C)C2)cc1 (configuration not stated)	0.5%	.	2	1.9%	.	0.4	.
CNC(=O)/C(C#N)=C/c1cn(CC(=O)OC)c2ccccc12	-1.5%	13	5	.	23%	-0.1	.
Cn1nnc(NC(=O)CSc2ncn[nH]2)n1	-1.8%	-0.4	-9	-0.3%	13%	-0.6	-1
COc1ccc(OCc2cc(C(=O)N3CCCN(C(C)=O)CC3)no2)c(Cl)c1	0.6%	.	-14	1.3%	12%	0.1	-1
CCOC(=O)Nc1nnc(Cc2ccc(Cl)c(Cl)c2)s1	11%	2.5	-3	.	18%	0.6	-2
Cc1ccc2nsnc2c1S(=O)(=O)N(Cc1cc2cccc(C)c2[nH]c1=O)CC1CCCO1 (configuration not stated)	1.5%[38.3 µM]	2.4	7	-0.9%	14%	1.2	-11
NC(=O)c1cc2ccccc2oc1=NCc1ccccc1	3.8%	2.6	-2	-3.3%	-19%	-0.3	-25
COc1ccc(S(=O)(=O)N[C@@H](C)C(=O)OCC(=O)Nc2cc3oc4ccccc4c3cc2OC)cc1	3.7%	5.7	24	26%	6%	-0.4	2

Remaining list, next part
Structure	PINK1 expr mod	Menin MLL FP FL	TRPML1 inh	ClpP mod	Sfp PPTase inh	TRPML1 ag	TRPV1 potentiator
CCOC(=O)C1(CCc2ccccc2)CCN(C(=O)C2CCOCC2)CC1	-1.7%	-0.1	-5	.	10%	0.4	-15
CCOC(=O)Cn1ccc(O)c(Cc2ccc(Cl)cc2Cl)c1=O	1.3%	-1.0	-1	-3.1%	22%	0.5	-18
O=C(Cc1ccc(F)cc1)N(c1ccc(F)cc1)C1C=CS(=O)(=O)C1 (configuration not stated)	?	-4.2	-7	0.5%	7%	1.1	6
Cc1ccc(C)c(C(=O)c2c(C)nc3sccn23)c1	4.0%	0.8	-1	-0.5%	0%	0.9	-21
CCOC(=O)c1ccc(NC(=O)Cn2ncc3c(C)n(Cc4ccccc4F)c(C)c3c2=O)cc1	0.3%	.	-11	-23%	.	-0.1	.
CCC(=O)N1Cc2cc(C(=O)Nc3nccs3)nc(-c3cccc(-c4ccccc4OC)c3)c2[C@@H]1CCO	4.1%	.	.	-9.7%	.	0.2	.
CCOC(=O)C1CCN(C(=O)c2cc3c(=O)n4ccccc4nc3s2)CC1	1.4%	.	-4	3.9%	17%	0.8	8
N#Cc1c(N)nc2c(c1-c1cccc(O)c1)CCCCCC2	.	2.1	15	-27%	1%	-0.4	.
